Screening data: PubChem BioAssay, National Center for Advancing Translational Sciences (NCATS)
LT uptake inh: inhibitors of anthrax lethal toxin internalization. actives 0.67% (n = 70,000). AID 912. Cells, anthrax lethal toxin internalization, FRET ratio (460/530). Potency, µM (doses to about 40 µM), inactives show at the top dose activity change, negative = inhibition, usual class: inhibitors; active = well fitted falling ratio curve with the 530 nm signal flat; inconclusive = other ratio curves, or a change in one channel alone; inactive = flat curves in the ratio and both channels; the % refers to the ratio; note: % is set by controls: 0 for no effect and ±100 for the full control effect; nearly all actives have a fitted effect of over 50% in size; tested in ME-180 cells; beta-lactamase reporter
SmPrx2 inh: inhibitors of Schistosoma mansoni peroxiredoxin 2 | S. mansoni Prx2 activity coupled to TGR/GSH (TGR is thioredoxin glutathione reductase), NADPH fluorescence loss, qHTS; some inactives read as strong as hits | AID 448 | actives 0.07% (n = 65,000) | Potency, µM; active means full or partial inhibition curve with a strong effect at the top dose; inconclusive means weaker partial or single-point curve; inactive means no accepted curve; note: series up to 57 µM; many of its hits are not listed in these tables
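Coupled assay in which S. mansoni TGR passes NADPH reducing equivalents via glutathione to Prx2, which reduces H2O2. Compounds were preincubated 15 min at room temperature with 25 nM TGR/50 nM Prx2 mix. Kinetic NADPH fluorescence loss (ex 365/em 450 nm) was monitored.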
* marks the source's active call; other numbers are inactive results; ? = inconclusive; nt = no result given; & = joins results of further samples; [ ] = another dose, or the depositor's remark. Potency is the fitted concentration of half-maximal effect.

Screens in order: SmPrx2 inh, LT uptake inh
- COc1ccc(-n2c(Cc3cc(=O)[nH]c(=O)[nH]3)nnc2SCC(=O)Nc2ccccc2)cc1
    >57, ?
- Cc1cc2n(n1)C(c1ccc3c(c1)OCO3)Nc1c(C)cccc1-2 (configuration not stated)
    >57, -9.1%
- CCOc1cc(C)c(S(=O)(=O)NC2CCCCC2)cc1C
    >57, -0.3%
- COc1ccc2c(c1)CCc1c(C(=O)NCc3ccco3)noc1-2
    >57, -20.8%
- Cc1cc(C)c2cc(CN(CCN3CCCC3)C(=O)Nc3ccc(F)cc3)c(=O)[nH]c2c1
    >57, -11.1%
- COc1ccc(NC(=O)C23CCC(C)(C(=O)C2)C3(C)C)cc1 (configuration not stated)
    >57, 4.3%
- CC(=O)N1CCc2cc(S(=O)(=O)NCCC(=O)NC3CCCc4ccccc43)ccc21 (configuration not stated)
    >57, -14.2%
- CC1CC(C)CN(C(=O)Cn2c(=O)n(CCCCC(=O)NC3CCCC3)c(=O)c3ccccc32)C1 (configuration not stated)
    >57, 4.3%
- C=CCn1c(=O)/c(=C/c2ccc(C)o2)s/c1=C(/C#N)C(=O)c1ccccc1
    >57, -5.7%
- C=CCNC(=O)C1CC(=O)N(c2ccc(OCC(=O)Nc3ccccc3)cc2)C1 (configuration not stated)
    >57, -15.1%

Next results follow:
Screens in order: SmPrx2 inh, LT uptake inh
- O=C(CSc1nc2ccccc2c(=O)n1CCCC(=O)N1CCCC1)NCc1ccco1
    >57, ?
- COCc1cc(C)nc(NC2CCCCC2)c1C#N
    >57, -25.8%
- COc1ccc(NS(=O)(=O)Cc2ccccc2Cl)cn1
    >57, 11.4%
- CS(=O)(=O)N(CC(=O)NCCC1=CCCCC1)C1CCCCC1
    >57, 6.1%
- CCOc1ccc(C(=O)NCc2ccncc2)cc1OCC
    >57, -12.3%
- Cc1cc(C(=O)OCC(=O)c2ccc(Br)s2)no1
    >57, -1.7%
- Cc1ccc(-c2csc3nnc(SCC(=O)N4CCN(Cc5ccccc5)CC4)n23)cc1
    >57, -23.0%
- CC1(C(=O)NC2CCCC2)CCC(=O)N1Cc1ccccc1 (configuration not stated)
    >57, -8.7%
- O=C(O)CCn1cnc2ccccc2c1=O
    >57, 4.0%
- O=C(Nc1ccc(N2CCN(Cc3ccccc3)CC2)cc1)c1ncn[nH]1
    >57, 16.6%

Next part, overlapping the part above by 3 compounds.
Screens in order: SmPrx2 inh, LT uptake inh
- CC1(C(=O)NC2CCCC2)CCC(=O)N1Cc1ccccc1 (configuration not stated)
    >57, -8.7%
- O=C(O)CCn1cnc2ccccc2c1=O
    >57, 4.0%
- O=C(Nc1ccc(N2CCN(Cc3ccccc3)CC2)cc1)c1ncn[nH]1
    >57, 16.6%
- O=C(O)C1C(c2ccccc2)C(C(=O)OCc2ccco2)C1c1ccccc1 (configuration not stated)
    nt, 22.9%
- COc1ccc(C(=O)N2CCC[C@@]3(CCN(c4ccncc4)C3)C2)cc1
    >57, 19.1%
- CCn1c(C)cc2c(c1=O)C(c1ccncc1)C(C#N)=C(N)O2 (configuration not stated)
    >57, ?
- CC(C)(C)N1C(=O)c2ccc(C(=O)Nc3nccs3)cc2C1=O
    >57, ?
- COCC(=O)Nc1cc(C)c2c(=O)oc3ccccc3c2n1
    >57, 2.2%
- COc1ccc(/C(O)=C2\C(=O)C(=O)N(CC3CCCO3)C2c2cc(OC)ccc2OC)cc1 (configuration not stated)
    >57, 7.7%
- Cc1cc(NC(=O)c2cc3n(n2)C(C(F)(F)F)CC(c2ccc(Cl)c(Cl)c2)N3)no1 (configuration not stated)
    >57, -11.8%
- Cn1c(=O)c2c(nc(SCC(=O)N3CCc4ccccc43)n2Cc2ccccc2)n(C)c1=O
    >57, -7.2%
- COC(=O)c1ccc(NC(=O)C2CCCN2S(=O)(=O)c2ccc(C)cc2)cc1 (configuration not stated)
    >57, 6.4%
- O=C1NC(Nc2ccccn2)(C(F)(F)F)C(=O)N1c1ccc(F)cc1 (configuration not stated)
    >57, nt

Continued:
Screens in order: SmPrx2 inh, LT uptake inh
- COCCNc1nc(C(C)(C)C)nc2c1nnn2Cc1ccccc1Cl
    >57, -6.3%
- Cc1cc(S(=O)(=O)N2CCN(c3ccc(F)cc3)CC2)c(C)s1
    >57, ?
- COC(=O)Cc1csc(Nc2c(C)n(C)n(-c3ccccc3)c2=O)n1
    >57, -8.7%
- FC(F)(F)c1cccnc1N1CCN(c2ncnc3nc[nH]c23)CC1
    >57, 14.5%
- COc1cccc(Oc2ccc(N)cn2)c1
    >57, -8.6%
- CC(C)CC(=O)NC1(C(F)(F)F)C(=O)Nc2c1c(=O)[nH]c(=O)n2Cc1ccco1 (configuration not stated)
    >57, -0.2%
- CC[C@H](CO)NC(=O)[C@@H]1C=C2c3cccc4[nH]cc(c34)C[C@@H]2N(C)C1
    >57, ?
- CNC(=O)N(C1=NCC(C)(C)S1)c1ccc(F)c(Cl)c1
    >57, -3.9%
- O=C(Nc1ccc(N2CCOCC2)c(Cl)c1)C1CCCCC1
    nt, -14.7%
- COCCn1c(=O)c(-c2ccc(Cl)cc2)nc2cnc(N3CCOCC3)nc21
    >57, -5.8%

The list continues:
Screens in order: SmPrx2 inh, LT uptake inh
- CCCCN(C)CCCNC(=O)c1ccc2c(c1)NC(=O)C(N1CCOCC1)S2 (configuration not stated)
    >57, 4.1%
- O=C(c1cccc(C(=O)N2CCN(c3ncccn3)CC2)c1)N1CCN(c2ncccn2)CC1
    >57, 4.7%
- O=C(Nc1ccccc1C(=O)N1CCOCC1)C1COc2ccccc2O1 (configuration not stated)
    >57, 0.6%
- O=C(Nc1ccccc1Cl)c1ccc(S(=O)(=O)N2CCOCC2)cc1
    >57, -0.8%
- CCOC(=O)c1cccc(NC(=O)C2CCN(S(=O)(=O)c3cnc[nH]3)CC2)c1
    >57, -8.7%
- CC1(C)NC(=O)N(CC(O)COc2ccccc2C(=O)N2CCCCC2)C1=O (configuration not stated)
    >57, -5.0%
- CCOC(=O)N1CCC(NC(=O)CC(NS(=O)(=O)c2ccc(C)cc2)c2ccco2)CC1 (configuration not stated)
    >57, -4.9%
- CC(=O)Nc1cccc(N2CCCC2=O)c1
    >57, -0.3%
- CC(C)(C)c1cc(NC(=O)c2cccnc2)no1
    >57, -14.2%
- CCOc1ccc(NC(=O)COC(=O)Cn2cnnn2)cc1OCC
    >57, 13.5%

Further structures:
Screens in order: SmPrx2 inh, LT uptake inh
- CCOC(=O)c1ccc(NC(=O)Nc2cc(C)on2)cc1
    >57, 2.0%
- CCn1c(=O)cc(SCC(=O)Nc2ccccc2N2CCN(C)CC2)c2ccccc21
    >57, -1.1%
- O=C(CSc1nnc2c3cc(F)ccc3nc(-c3ccccc3)n12)N1CCOCC1
    >57, 0.4%
- COC(=O)N(c1ccccc1)P1(=S)OCCO1
    >57, -7.8%
- Cc1cc(C)n2c(SCc3c(C)noc3C)nnc2n1
    >57, ?
- O=C(NCc1cccs1)N[C@@H](Cc1ccccc1)C(=O)O
    >57, 5.4%
- CC1=C2[C@@H]3OC(=O)[C@H](C)[C@H]3CC[C@@]2(C)C=CC1=O
    >57, 6.2%
- O=C(COC(=O)C1CC1)c1c[nH]c2ccccc12
    >57, 4.0%
- O=C(CSCc1ccco1)c1ccc(Cl)s1
    >57, -7.7%
- CC(=O)Nc1ccccc1OCc1nnc(-c2cccs2)o1
    >57, nt

(continued)
Screens in order: SmPrx2 inh, LT uptake inh
- O=C(c1cc(-c2cccs2)on1)N1CCCc2ccccc21
    >57, ?
- O=C(CCN1CCCCC1)NCNC(=O)CCN1CCCCC1
    >57, 4.4%
- CCOC(=O)c1cccc(NS(=O)(=O)c2c(C)[nH]c(=O)[nH]c2=O)c1
    >57, 10.4%
- Cc1cc(C)c2c(=O)n(CC(=O)N3CCC(Cc4ccccc4)CC3)sc2n1
    >57, -14.2%
- COc1cccc(CN2CCN(c3cccc(C(F)(F)F)c3)CC2)c1OC
    >57, -8.6%
- Cc1noc(C)c1COC(=O)COc1cccc2c1OC(C)(C)C2
    >57, -8.1%
- O=C1c2ccccc2C(=O)N1CCC(=O)N1CCCc2ccccc21
    >57, -15.2%
- CCOC(=O)CC(=O)CSc1nc2nc(C)cc(C)n2n1
    >57, -6.9%
- O=C(Nc1cc(C(F)(F)F)ccc1N1CCOCC1)C1Cc2ccccc2CN1C(=O)c1ccco1 (configuration not stated)
    >57, ?
- Cc1ccc(NC(=O)CSCc2c(C)noc2C)cc1C
    >57, -9.5%

More records:
Screens in order: SmPrx2 inh, LT uptake inh
- CC(C)=CCCC(C)NC(=O)NC1CCCCC1 (configuration not stated)
    >57, ?
- O=C(c1cccc(F)c1)N1CCC2(CCN(Cc3ccccc3)CC2)CC1
    >57, -7.1%
- C[C@@H]1O[C@@H](O[C@H]2C[C@@H](O)[C@]3(CO)[C@@H]4[C@@H](O)C[C@]5(C)[C@H]([C@@H]6COC(=O)C6)CC[C@@]5(O)[C@H]4CC[C@@]3(O)C2)[C@H](O)[C@H](O)[C@@H]1O
    >25.6, ?
- O=c1[nH]c(CS(=O)(=O)c2ccccc2)nc2ccccc12
    >57, -0.6%
- CCOC(=O)c1ccc(Nc2nnc(C(C)(C)C)c(=O)[nH]2)cc1
    >57, 4.4%
- O=C(Nc1cccc(Cn2cccn2)c1)c1cc2c(s1)CCCC2
    >57, ?
- COc1ccc2c(c1)cc(C)c1nnc(SCC(=O)N3CCN(C(=O)c4ccco4)CC3)n12
    >57, -5.1%
- CS(=O)(=O)N(CC(=O)Nc1cccc(F)c1)Cc1ccccc1
    >57, -2.8%
- Cc1ccc(Br)cc1
    nt, -9.0%
- Cc1cc(NC(=O)CSc2nc3c(c(-c4cccnc4)c2C#N)CCC3)no1
    nt, 1.4%

The results go on:
Screens in order: SmPrx2 inh, LT uptake inh
- CCCCCCN(C(=O)CCCCCN1C(=O)NC(C2CC2)C(C(=O)OCc2ccccc2)=C1C)C(C(=O)NCCCC)c1ccc(OCC(=O)OC)c(C(=O)OC)c1 (configuration not stated)
    nt, ?
- Cn1nc(CC(=O)Nc2ccc3c(c2)OCCO3)c2ccccc2c1=O
    >57, 2.9%
- CCOC(=O)N1CCN(C(=O)C2CCCN(c3nc4ccc(OCC)cc4s3)C2)CC1 (configuration not stated)
    >57, -9.0%
- CN(C)CCNC(=O)c1ccc(CS(=O)(=O)c2c(Cl)cccc2Cl)o1
    >57, -21.8%
- COc1ccc(CCNC(=O)c2c(-c3ccccc3)noc2C)cc1OC
    nt, 0.2%
- COc1cc(C(=O)N(Cc2ccco2)Cc2cc3ccccc3[nH]c2=O)cc(OC)c1OC
    >57, -12.2%
- O=S(=O)(c1ccc2ccccc2c1)N1CCCOC1
    >57, -7.9%
- Cc1ccc(C)c(Cn2nnc3c(=O)[nH]c(C(=O)NCC4CCCO4)nc32)c1 (configuration not stated)
    >57, ?
- CC1(C)Cc2c(sc3nc(SCC(=O)N4CCOCC4)nc(N)c23)CO1
    >57, 7.94µM*
- Oc1cc(O)c2c(c1)O[C@H](c1ccc(O)c(O)c1)[C@H](O)C2
    >57&>57&>57, -8.9%[3.58 µM]

(continued)
Screens in order: SmPrx2 inh, LT uptake inh
- O=C(NC12CC3CC(CC(C3)C1)C2)N1CCN(S(=O)(=O)c2ccc(Cl)cc2)CC1
    >57, ?
- O=C(NCc1ccc(Cl)cc1Cl)c1ccccn1
    >57, ?
- CCOC(=O)c1c(NC(=O)C2CCCN2S(=O)(=O)c2cccc3nsnc23)sc(C)c1C (configuration not stated)
    nt, ?
- CC1(C)CC(=O)CC(C2(O)C(=O)N(Cc3ccccc3)c3ccccc32)O1 (configuration not stated)
    >57, -13.2%
- COc1ccccc1NS(=O)(=O)CC12CCC(CC1=O)C2(C)C (configuration not stated)
    >57, 10.0%
- COc1cc2cc(C(c3nnnn3C3CCCCC3)N(C)C3CCCCC3)c(=O)[nH]c2cc1OC (configuration not stated)
    >57, -4.8%
- CN1CCc2cccc3c2[C@@H]1Cc1ccc(O)c(O)c1-3
    >57&>57&>57, ?
- CN(C(=O)C1CCOC1)c1nnc(-c2cnccn2)s1 (configuration not stated)
    >57, -6.3%
- FC(F)(F)c1cc(NC(=S)N2c3ccccc3-n3cccc3[C@H]2c2cccnc2)cc(C(F)(F)F)c1
    >57, -7.2%[8 µM]
- Cc1noc(C)c1COC(=O)c1cc(C)n(-c2ccccc2)c1C
    >57, ?

Going on with the list:
Screens in order: SmPrx2 inh, LT uptake inh
- Cc1cc(-c2ccccc2)n(-c2ccc(C(=O)N3CCN(c4ncccn4)CC3)cc2)n1
    >57, ?
- COCc1[nH]nc2c1C(c1cc(OC)c(O)c(OC)c1)C(C#N)=C(N)O2 (configuration not stated)
    >57, -4.3%
- CC1CCCC(NS(=O)(=O)c2ccc3c(c2)OCCO3)C1C (configuration not stated)
    >57, -0.1%
- CCN1CCN(C(=O)COc2cc(=O)n(CC)c3ccccc23)CC1
    >57, 9.0%
- COc1ccc(NC(=O)C2C3CCC(C3)C2C(=O)O)cc1OC (configuration not stated)
    >57, -12.0%
- O=P(c1ccccc1)(c1ccccc1)N1CC2(CC2)CC(O)(c2ccccc2)C1 (configuration not stated)
    >57, 3.7%
- c1ccc(Cn2nnnc2CN2CCN(c3ncccn3)CC2)cc1
    >57, 1.4%
- COc1ccc(NC(=O)c2ccccc2NC(=O)C2CCCO2)cc1 (configuration not stated)
    >57, 5.2%
- O=S(=O)(Nc1cccnc1)c1cccc2cccnc12
    >57, 3.2%
- CCCCOC(=O)Nc1cccc(C(C)=O)c1
    nt, -4.5%
- Nc1c(C(=O)Nc2ccc(F)cc2)sc2nc(-c3ccco3)ccc12
    >57, -5.6%

Some of the compounds tested; the hit share may differ from the screen's.
